Vaccinia stage – Vaccinia orthopox stage-specific inhibition | Vaccinia-infected cells, mCherry/Venus stage reporter fluorescence; stronger effect = lower value; some inactives read as strong as hits | activity change (mCherry), % (test concentration not listed) | hit rate 0.01% among 89,000;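 active = mCherry past -33% and 40 or more points under the early reporter, replicates agreeing; inconclusive = past -33% without that gap or agreement; tested in A549 cells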;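 also: scaled between vehicle wells and reference inhibitor wells; 23 nL library stock went into each well; one replicate is shown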
Vaccinia stage Venus – recorded beside Vaccinia stage, whose call it bears; activity change (Venus), %; measured here: Venus reporter, other viral stage;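 negative = less Venus signal; first of two replicates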
* marks the source's active call; other numbers are inactive results; & = joins results of further samples. A portion of the library, so the mix of outcomes need not match the whole.

Results for C[C@@H]1CN([C@H](C)CO)C(=O)c2cc(C#C[C@@H](C)O)cnc2O[C@H]1CN(C)Cc1cccc(C(=O)O)c1 ?
Vaccinia stage: 5; Vaccinia stage Venus: 0

What do the screens show for `CCC(=O)N(C)C[C@@H]1Oc2cc(-c3ccncc3)ccc2S(=O)(=O)N([C@@H](C)CO)C[C@H]1C`?
Vaccinia stage: 28; Vaccinia stage Venus: 18

How did Cc1noc(C)c1S(=O)(=O)Nc1ccc2c(c1)C(=O)N([C@@H](C)CO)C[C@@H](C)[C@H](CN(C)Cc1ccncc1)OCCCC[C@@H](C)O2 do in these assays?
Vaccinia stage: 30; Vaccinia stage Venus: 20

How did Cc1noc(C)c1S(=O)(=O)Nc1cccc2c1O[C@H](CN(C)C(=O)NC1CCCCC1)[C@H](C)CN([C@H](C)CO)C2=O do in these assays?
Vaccinia stage: 7; Vaccinia stage Venus: 2

What do the screens show for `COCC(=O)Nc1ccc2c(c1)C(=O)N(C)C[C@@H](OC)[C@@H](C)CN(C(=O)NC(C)C)[C@H](C)CO2`?
Vaccinia stage: 0; Vaccinia stage Venus: 6

What do the screens show for `C[C@H]1CCCCO[C@H](CN(C)Cc2ccc(Cl)c(Cl)c2)[C@@H](C)CN([C@@H](C)CO)C(=O)c2cc(NC(=O)CCC(F)(F)F)ccc2O1`?
Vaccinia stage: inconclusive

Results for O=C(Nc1ccc(F)cc1)N[C@H]1CC[C@H](CCNC(=O)c2ccccc2F)O[C@H]1CO ?
Vaccinia stage: -5; Vaccinia stage Venus: -4

What do the screens show for `O=C(C[C@@H]1C[C@@H]2c3cc(NC(=O)CC4CC4)ccc3O[C@@H]2[C@@H](CO)O1)NCc1ccccc1`?
Vaccinia stage: 0; Vaccinia stage Venus: 6

Results for C[C@@H]1CN([C@@H](C)CO)S(=O)(=O)c2ccc(C#Cc3ccccc3F)cc2O[C@@H]1CN(C)C(=O)Cc1ccccc1 ?
Vaccinia stage: inconclusive

Results for COc1ccc(CN(C)C[C@H]2OCCCC[C@H](C)Oc3ccc(NC(=O)Nc4c(C)noc4C)cc3C(=O)N([C@@H](C)CO)C[C@H]2C)cc1 ?
Vaccinia stage: 11; Vaccinia stage Venus: 2

What do the screens show for `C[C@H]1CN([C@@H](C)CO)C(=O)c2cc(Br)cnc2O[C@H]1CN(C)Cc1cccc(F)c1`?
Vaccinia stage: 12; Vaccinia stage Venus: 4

What do the screens show for `CS(=O)(=O)N1CCCCN2[C@H](CO)[C@H](c3ccc(-c4cccc(C#N)c4)cc3)[C@@H]2C1`?
Vaccinia stage: 8; Vaccinia stage Venus: 3

What do the screens show for `C[C@@H]1CN([C@@H](C)CO)C(=O)c2cc(NC(=O)C3CCCCC3)ccc2O[C@@H]1CN(C)C(=O)Nc1ccc(C(F)(F)F)cc1`?
Vaccinia stage: -18; Vaccinia stage Venus: -9

What do the screens show for `COc1cccc(NC(=O)N(C)C[C@@H]2Oc3cc(C#Cc4ccc(F)cc4)ccc3S(=O)(=O)N([C@H](C)CO)C[C@@H]2C)c1`?
Vaccinia stage: -29; Vaccinia stage Venus: -24

Results for CN(C)C(=O)C[C@H]1CC[C@@H](NC(=O)c2ccc(F)cc2)[C@H](CO)O1 ?
Vaccinia stage: 10; Vaccinia stage Venus: 5

What do the screens show for `CCCC#Cc1ccc2c(c1)O[C@@H](CN(C)Cc1ccc3c(c1)OCO3)[C@@H](C)CN([C@H](C)CO)S2(=O)=O`?
Vaccinia stage: -26; Vaccinia stage Venus: -18

Results for C[C@@H]1CCCCO[C@@H](CN(C)S(=O)(=O)c2ccc(Cl)cc2)[C@H](C)CN([C@@H](C)CO)C(=O)c2cc(NC(=O)CCC(F)(F)F)ccc2O1 ?
Vaccinia stage: inconclusive

Results for CC(C)C#Cc1ccc2c(c1)O[C@H](CN(C)Cc1ccncc1)[C@H](C)CN([C@H](C)CO)S2(=O)=O ?
Vaccinia stage: inconclusive

How did CO[C@H]1CN(C)C(=O)c2cc(NC(=O)C3CCC3)ccc2OC[C@@H](C)N(Cc2ccc(F)cc2)C[C@@H]1C do in these assays?
Vaccinia stage: inconclusive

Results for O=C(NC1CCCC1)N[C@H]1C=C[C@H](CC(=O)N2CCOCC2)O[C@H]1CO ?
Vaccinia stage: -8; Vaccinia stage Venus: -2

What do the screens show for `O=C(Nc1cccc(F)c1)N1CCCCN2[C@H](C1)[C@@H](c1ccc(C#Cc3ccccc3)cc1)[C@@H]2CO`?
Vaccinia stage: inconclusive

What do the screens show for `COc1ccc(NC(=O)Nc2ccc3c(c2)C(=O)N([C@H](C)CO)C[C@H](C)[C@H](CN(C)C(=O)Nc2ccc(OC)cc2)OCCCC[C@@H](C)O3)cc1`?
Vaccinia stage: 38; Vaccinia stage Venus: 16

Results for COC(=O)C[C@@H]1CC[C@H]2[C@@H](COC[C@H](O)CN2S(=O)(=O)c2ccc(F)cc2)O1 ?
Vaccinia stage: 13; Vaccinia stage Venus: 8

What do the screens show for `C[C@H]1CN([C@@H](C)CO)C(=O)Cc2cc(NC(=O)NC3CCCCC3)ccc2O[C@H]1CN(C)S(=O)(=O)c1ccccc1`?
Vaccinia stage: -15; Vaccinia stage Venus: -8

How did O=C(C[C@H]1C[C@@H]2c3cc(NS(=O)(=O)c4ccc(F)cc4)ccc3O[C@@H]2[C@H](CO)O1)NCc1ccc(-c2ccccc2)cc1 do in these assays?
Vaccinia stage: inconclusive

How did C[C@H]1CN([C@@H](C)CO)C(=O)c2cc(NS(=O)(=O)c3ccccc3)ccc2O[C@H]1CN(C)Cc1ccc(-c2ccccc2)cc1 do in these assays?
Vaccinia stage: 0; Vaccinia stage Venus: -1

What do the screens show for `C[C@@H]1CN([C@H](C)CO)C(=O)Cc2cc(NC(=O)c3ccncc3)ccc2O[C@H]1CN(C)C(=O)Nc1cccc2ccccc12`?
Vaccinia stage: 23; Vaccinia stage Venus: 23

What do the screens show for `CCCNC(=O)C[C@@H]1CC[C@@H]2[C@H](COC[C@H](O)CN2Cc2ccc(Cl)c(Cl)c2)O1`?
Vaccinia stage: 1; Vaccinia stage Venus: 5

Results for C[C@@H]1CCCCO[C@H](CN(C)Cc2ccc(C(=O)Nc3ccccc3N)cc2)[C@@H](C)CN([C@H](C)CO)C(=O)c2cc(NS(=O)(=O)c3cccs3)ccc2O1 ?
Vaccinia stage: 10; Vaccinia stage Venus: -4

What do the screens show for `NC(=O)NCC#Cc1ccc2c(c1)[C@]1(C(=O)N2)[C@H](c2ccccc2OCCO)N2[C@H](c3ccccc3)[C@H](c3ccccc3)OC(=O)[C@H]2[C@@H]1C(=O)O`?
Vaccinia stage: 10; Vaccinia stage Venus: 10

What do the screens show for `OC[C@@H]1[C@@H](c2ccccc2)C2(CN(CC3CCOCC3)C2)N1Cc1nccs1`?
Vaccinia stage: 13; Vaccinia stage Venus: 6

What do the screens show for `C[C@@H]1CN([C@@H](C)CO)C(=O)c2cc(NC(=O)CCC(F)(F)F)ccc2O[C@@H]1CN(C)C(=O)Nc1cccc2ccccc12`?
Vaccinia stage: -32; Vaccinia stage Venus: -30

What do the screens show for `CO[C@@H]1CN(C)C(=O)c2cc(NC(=O)c3nc4ccccc4s3)ccc2OC[C@@H](C)N(Cc2ccncc2)C[C@@H]1C`?
Vaccinia stage: inconclusive

Results for Cc1noc(C)c1NC(=O)Nc1cccc2c1O[C@@H](CN(C)C(=O)NC1CCCCC1)[C@@H](C)CN([C@H](C)CO)C2=O ?
Vaccinia stage: 6; Vaccinia stage Venus: 3

What do the screens show for `CCCNC(=O)N1CC2(CCN(CC3CCCCC3)CC2)c2c(n(C)c3cc(OC)ccc23)[C@@H]1CO`?
Vaccinia stage: inconclusive

What do the screens show for `C[C@@H]1CN([C@@H](C)CO)S(=O)(=O)c2ccc(C#CC(C)(C)O)cc2O[C@@H]1CN(C)Cc1ccccc1`?
Vaccinia stage: -11; Vaccinia stage Venus: -16

How did CNC(=O)C[C@H]1CC[C@@H]2[C@@H](COc3ccc(NS(=O)(=O)c4ccccc4C)cc3C(=O)N2C)O1 do in these assays?
Vaccinia stage: 9; Vaccinia stage Venus: 4

How did COc1ccc(S(=O)(=O)N(C)C[C@H]2OCCCC[C@@H](C)Oc3ccc(N(C)C)cc3C(=O)N([C@@H](C)CO)C[C@@H]2C)cc1 do in these assays?
Vaccinia stage: -21; Vaccinia stage Venus: -9

How did C[C@@H]1CN([C@@H](C)CO)C(=O)Cc2cc(NC(=O)Nc3cccc4ccccc34)ccc2O[C@@H]1CN(C)Cc1ccc(Cl)c(Cl)c1 do in these assays?
Vaccinia stage: -15; Vaccinia stage Venus: -14

What do the screens show for `C[C@@H]1CN([C@@H](C)CO)C(=O)Cc2cc(NS(=O)(=O)c3ccccc3)ccc2O[C@@H]1CN(C)CC1CC1`?
Vaccinia stage: 19; Vaccinia stage Venus: 9

Two entries picked at random from those above, as already listed:
What do the screens show for `CCCNC(=O)N1CC2(CCN(CC3CCCCC3)CC2)c2c(n(C)c3cc(OC)ccc23)[C@@H]1CO`?
Vaccinia stage: inconclusive

What do the screens show for `OC[C@@H]1[C@@H](c2ccccc2)C2(CN(CC3CCOCC3)C2)N1Cc1nccs1`?
Vaccinia stage: 13; Vaccinia stage Venus: 6

Following part.
How did C[C@@H]1CN([C@@H](C)CO)C(=O)c2cc(NS(=O)(=O)c3ccccc3)ccc2O[C@@H](C)CCCCO[C@H]1CN(C)C(=O)Nc1cccc2ccccc12 do in these assays?
Vaccinia stage: 39; Vaccinia stage Venus: 23

What do the screens show for `O=C(Nc1ccc2c(c1)[C@H]1C[C@H](CC(=O)N3CCOCC3)O[C@@H](CO)[C@H]1O2)NC1CCCC1`?
Vaccinia stage: 2; Vaccinia stage Venus: 3

How did N#C[C@H]1[C@@H](c2ccc(C#CC3CCCCC3)cc2)[C@@H](CO)N1S(=O)(=O)c1ccccc1 do in these assays?
Vaccinia stage: -16; Vaccinia stage Venus: -10

What do the screens show for `Cn1cnc(S(=O)(=O)N2[C@@H]3CNC[C@H]2C3c2ccc(/C=C/c3ccccc3)cc2)c1` (stereo not given in full)?
Vaccinia stage: -7&3; Vaccinia stage Venus: -1&-1

How did C[C@@H]1CN([C@H](C)CO)C(=O)Cc2cc(NC(=O)Nc3cccc4ccccc34)ccc2O[C@@H]1CN(C)S(C)(=O)=O do in these assays?
Vaccinia stage: 17; Vaccinia stage Venus: 9

Results for C[C@H](CO)N1C[C@H](C)[C@H](CN(C)C(=O)Nc2ccc(F)cc2)Oc2ccc(NC(=O)Cn3cnnn3)cc2C1=O ?
Vaccinia stage: 13; Vaccinia stage Venus: 1

How did Cc1ccc(S(=O)(=O)N(C)C[C@H]2OCc3ccccc3-c3ccccc3C(=O)N([C@@H](C)CO)C[C@@H]2C)cc1 do in these assays?
Vaccinia stage: -16; Vaccinia stage Venus: -16

What do the screens show for `C[C@@H]1CN([C@H](C)CO)C(=O)Cc2cc(N(C)C)ccc2O[C@@H]1CN(C)Cc1ccc(C(=O)Nc2ccccc2N)cc1`?
Vaccinia stage: inconclusive

What do the screens show for `CCC(=O)N1CC2(C1)CN(C(=O)c1cnccn1)[C@@H](CO)c1c2c2ccc(OC)cc2n1C`?
Vaccinia stage: 0; Vaccinia stage Venus: 4

What do the screens show for `C[C@@H]1CN([C@H](C)CO)C(=O)c2cc(/C=C/c3ccccc3)cnc2O[C@H]1CN(C)C(=O)Nc1ccc(C(F)(F)F)cc1`?
Vaccinia stage: -33; Vaccinia stage Venus: -30

Sorted by length of the SMILES (ascending): 6 of the compounds above.
What do the screens show for `Cn1cnc(S(=O)(=O)N2[C@@H]3CNC[C@H]2C3c2ccc(/C=C/c3ccccc3)cc2)c1` (stereo not given in full)?
Vaccinia stage: -7&3; Vaccinia stage Venus: -1&-1

How did N#C[C@H]1[C@@H](c2ccc(C#CC3CCCCC3)cc2)[C@@H](CO)N1S(=O)(=O)c1ccccc1 do in these assays?
Vaccinia stage: -16; Vaccinia stage Venus: -10

How did Cc1ccc(S(=O)(=O)N(C)C[C@H]2OCc3ccccc3-c3ccccc3C(=O)N([C@@H](C)CO)C[C@@H]2C)cc1 do in these assays?
Vaccinia stage: -16; Vaccinia stage Venus: -16

What do the screens show for `C[C@@H]1CN([C@H](C)CO)C(=O)Cc2cc(N(C)C)ccc2O[C@@H]1CN(C)Cc1ccc(C(=O)Nc2ccccc2N)cc1`?
Vaccinia stage: inconclusive

What do the screens show for `C[C@@H]1CN([C@H](C)CO)C(=O)c2cc(/C=C/c3ccccc3)cnc2O[C@H]1CN(C)C(=O)Nc1ccc(C(F)(F)F)cc1`?
Vaccinia stage: -33; Vaccinia stage Venus: -30

How did C[C@@H]1CN([C@@H](C)CO)C(=O)c2cc(NS(=O)(=O)c3ccccc3)ccc2O[C@@H](C)CCCCO[C@H]1CN(C)C(=O)Nc1cccc2ccccc12 do in these assays?
Vaccinia stage: 39; Vaccinia stage Venus: 23

Continuation:
Results for Cc1noc(C)c1S(=O)(=O)Nc1ccc2c(c1)CC(=O)N([C@@H](C)CO)C[C@H](C)[C@@H](CN(C)Cc1ccncc1)O2 ?
Vaccinia stage: 11; Vaccinia stage Venus: 8

Results for C[C@H](CO)N1C[C@H](C)[C@H](CN(C)Cc2ccncc2)Oc2ccc(NC(=O)Cc3ccccc3)cc2CC1=O ?
Vaccinia stage: 16; Vaccinia stage Venus: 13

Results for C[C@H](CO)N1C[C@H](C)[C@H](CN(C)C(=O)Nc2ccc(F)cc2)Oc2ncc(-c3cccnc3)cc2C1=O ?
Vaccinia stage: 45; Vaccinia stage Venus: 8

Results for C[C@@H]1CCCCO[C@@H](CN(C)C)[C@H](C)CN([C@H](C)CO)C(=O)c2cc(NC(=O)Nc3ccccc3)ccc2O1 ?
Vaccinia stage: 9; Vaccinia stage Venus: 5

What do the screens show for `COc1ccc(NC(=O)N(C)C[C@@H]2OCCCC[C@@H](C)Oc3ccc(NC(=O)NC(C)C)cc3C(=O)N([C@H](C)CO)C[C@@H]2C)cc1`?
Vaccinia stage: 4; Vaccinia stage Venus: 4

Results for C[C@@H]1CN([C@@H](C)CO)C(=O)Cc2cc(NS(=O)(=O)c3cn(C)cn3)ccc2O[C@H]1CN(C)C(=O)Nc1ccc(F)cc1 ?
Vaccinia stage: 6; Vaccinia stage Venus: 4

Screening results (PubChem BioAssay)
